# AID504770 – E. coli YBA685 growth inhibition, screen for V. cholerae RctB inhibitors; E. coli YBA685 rctB-dependent plasmid, OD600 growth, 3 h; hits give low values; z-score (concentration not given with the values); hit rate 0.27% among 130,000;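 active = z-score under -2 on both plates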;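 note: wells of about 30 µL received 100 nL stock; score is relative to mean and SD of the test wells; the first replicate is given; strong numbers were not always called active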
# Ba CapD inh – inhibitors of Bacillus anthracis CapD enzyme. purified CapD enzyme, fluorescence intensity read-out; hits give low values; some hits fall short of the stated cut. z-score (test concentration not listed). hit rate 0.23% among 140,000;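 active = z-score under -4 in either of two replicates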;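 note: stock transfer was 100 nL into about 40 µL; score is relative to mean and spread of the plate; one replicate is shown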
# * marks the source's active call; other numbers are inactive results; . = not tested or not shown.
# Each structure is followed by: AID504770, Ba CapD inh
- CCOc1ccc2oc(C(C)(C)C)c(C(=O)OC)c2c1
  -0.6, 0.46
- CCCOc1ccc(N2C(=O)C3C4C=CC(O4)C3C2=O)cc1 (centres undefined)
  ., -0.12
- CCCC1=C(C(=O)OCC)C(c2ccccc2Cl)C(C#N)=C(SC)N1 (centres undefined)
  -0.45, 4.1
- COC(=O)c1scc(S(=O)(=O)Cc2ccco2)c1NN=C(C#N)C#N
  -0.95, -3.1
- COC(=O)c1ccccc1N(C)c1nc(C)cc(C)n1
  ., 7
- Cc1nc(N2CCCCC2)c2c(C)c(C(=O)N3CCOCC3)sc2n1
  ., 0.02
- N#CC1(NCCc2ccccc2)CCCCC1
  0.25, 0.09
- O=CN1CCN(C(=O)CC(c2ccccc2)c2cc(Br)ccc2O)CC1 (centres undefined)
  0.3, -0.1
- COC(=O)c1ncn2c1C(=O)OC(COc1ccccc1)C2 (centres undefined)
  -0.9, -0.075
- Cn1c(=O)c2c(-c3ccc(Cl)cc3)n(CC3CCCO3)cc2n(C)c1=O (centres undefined)
  0.45, 67
- CN(CC(=O)NCc1cccs1)S(=O)(=O)c1ccc2c(c1)n(C)c(=O)c(=O)n2C
  -0.2, 2.7
- O=C(N/N=C/c1ccc(Cl)cc1)c1csc(CS(=O)(=O)Cc2ccco2)n1
  -0.7, -0.83
- Cc1ccc(NC(=O)COC(=O)c2cncc(Br)c2)c(C)c1
  -0.6, 0.91
- CC(C)(C)c1cc(C(=O)O)cc(C(C)(C)C)c1O
  -0.5, 0.78
- CC(=O)N1CCc2cc(C(O)CN3CCN(c4ccccc4)CC3)ccc21 (centres undefined)
  0.75, -1.4
- NC(=O)c1cccc(S(=O)(=O)N2CC(c3ccccc3)CC2=O)c1 (centres undefined)
  -0.45, 0.19
- CCOC(=O)c1c(NC(=O)Cc2ccc(Cl)cc2)sc(C(=O)Nc2ccc(OC)cc2OC)c1C
  ., 0.3
- O=C(COc1ccccc1F)NC(=Nc1ccccc1)c1ccccc1
  -0.8, 0.59
- CC(C)Nc1nc2cccnc2s1
  -0.8, -0.005
- c1ccc(Oc2nnc(-c3ccccc3)c3ccccc23)cc1
  -0.6, 0.075
- COc1ccc(NC(=O)C2CCC(CNS(=O)(=O)c3cccc4nsnc34)CC2)cc1 (centres undefined)
  1, -0.66
- COc1ccc(C(C)C)cc1S(=O)(=O)N1CC(C)OC(C)C1 (centres undefined)
  0.25, .
- Cc1[nH]c(-c2ccc(F)cc2)cc1C(=O)NCCCN1CCN(C2CCCCC2)CC1
  -1, -0.67
- C=CCN(C1=NC(C)(C)C(=C)S1)c1ccc(C)cc1C
  ., 0.05
- N#CC1=C(N)SC(N)=C(C#N)C1c1ccccc1F
  -1.2, -1.6
- CC(N)c1ccc(S(C)(=O)=O)cc1 (centres undefined)
  ., -0.24
- COc1ccc(C(=O)N2N=C3c4ccccc4S(=O)(=O)N3C2N2CCCCC2)cc1 (centres undefined)
  ., -0.3
- CC(=O)N1CCc2cc(N=Cc3ccc(O)cc3)ccc21
  -0.25, -0.47
- COC(=O)c1cc(S(=O)(=O)N2CCn3c2nc2ccccc23)c[nH]1
  -0.4, 0.2
- CCOc1ccc(C(=O)NC(C(=O)N2CCN(C)CC2c2ccccc2)C(C)C)cc1 (centres undefined)
  0.5, .
- Cn1c(SCCC(=O)O)nnc1-c1ccncc1
  0.2, .
- O=C(OCCSCc1ccc2nonc2c1)N1CCN(c2c(Cl)cncc2Cl)CC1
  ., -0.12
- C=CCn1c(Cc2cccs2)nnc1SCC(=O)NC1CC1
  1.4, -0.32
- CCCCn1nc(CC(=O)O)c2ccccc2c1=O
  -1, .
- CC(CCC(=O)O)C1CCC2C3C(O)CC4CC(O)CCC4(C)C3CC(O)C12C (centres undefined)
  1.2, .
- CCCn1cnc2sc3c(c2c1=O)CCCC3
  0.35, .
- O=C(CSc1nn(-c2ccccc2)c(=S)s1)N1N=CCC1c1ccccc1 (centres undefined)
  0.15, 0.35
- Cc1cc(=O)[nH]c(SCC(N)=O)n1
  -0.3, -0.65
- COc1cc(C(=O)NC(=S)NN2CCN(C)CC2)cc(OC)c1OC
  -0.3, .
- O=C1/C(=C/c2ccc([N+](=O)[O-])cc2)C=C(c2ccccc2)N1c1cccc(Cl)c1Cl
  ., -0.33
- O=C(O)CNC(=O)c1cc(-c2ccc(Cl)cc2)nc2ccccc12
  0.55, 33
- COC(=O)c1c(C)nc2nonc2c1N
  -0.5, 8.3
- N#C/C(=C(/O)CCN1C(=O)c2ccccc2C1=O)c1nc2ccccc2[nH]1
  -0.8, -0.18
- c1ccc(CNc2nc3cccnc3s2)cc1
  -0.9, -0.025
- COc1ccc(Cc2nn[nH]n2)cc1
  -0.8, 0.65
- Cc1[nH]c2ccc(C(=O)O)cc2c1C
  1.8, -0.78
- Cc1ccc(-c2nn(-c3ccccc3)cc2C(=O)N(C)C2CCN(C)CC2)cc1
  -1, -0.24
- CCNC(=O)c1ccc(C2SCC(=O)N2Cc2ccco2)cc1 (centres undefined)
  0.25, .
- CCN1C(=O)C2(C(C#N)=C(N)Oc3n[nH]c(-c4ccc(F)cc4)c32)c2ccccc21 (centres undefined)
  ., -0.22
- COc1cc(-c2nnc(COC(=O)c3cccnc3SC)o2)cc(OC)c1OC
  -0.6, .
- CC1Cn2c(nnc2-c2cccc(O)c2)S1 (centres undefined)
  0, 0.78
- COC(=O)Cn1c(=NC(=O)C(C)(C)C)sc2cc(F)ccc21
  1.8, .
- CCOC(=O)N1CCN(C(=O)c2cnc3n(c2=O)CCS3)CC1
  0.95, .
- COCC(C)n1c(C)cc(C(=O)COC(=O)[C@@H]2CCCN2C(=O)c2cccs2)c1C (some centres undefined)
  -1.2, .
- NC(=O)C1CCN(Cc2c(O)ccc3ccccc23)CC1
  0.15, 55
- O=C(Nc1c(F)cc(F)cc1Br)c1cc(S(=O)(=O)N2CCN(c3ccccn3)CC2)ccc1F
  ., -0.75
- COc1ccc(C2(C(=O)NCC3(c4ccccc4)CCCC3)CCCC2)cc1OC
  ., -0.23
- CCc1ccccc1Nc1ncnc2c1cnn2-c1ccc(OC)cc1
  ., -0.23
- Cc1cc(C)c(N2C(=O)C3C4CC(=O)C(c5ccccc54)C3C2=O)c(C)c1 (centres undefined)
  ., -0.05
- CCOC(=O)c1oc2ccccc2c1CO
  -0.1, -0.35

# The listing continues.
canonical_smiles	AID504770	Ba CapD inh
O=C(Nc1cccc2nsnc12)c1ccc(-c2cccc(Cl)c2)o1	0.95	3.2
COC(=O)c1ccc(NC(=O)C2C3CCC(C3)C2C(=O)O)cc1 (centres undefined)	-0.9	34
CSc1ccc(-c2nc(CSCC(=O)NC3CC3)c(C)o2)cc1	0.05	36
CCNC(=O)c1c(-c2ccccc2)noc1C	0.6	0.92
N#Cc1ccccc1CN1C(=O)c2cccc3cccc1c23	-0.75	.
Cc1ccc(Sc2c(-c3ccccc3)nc3ncccn23)cc1	-0.35	45
O=C(Nc1ccc(Oc2ccc(Br)c3ccccc23)c(Cl)c1)c1cc(Br)cc(Br)c1O	.	6.5
Cc1ccc(NCc2ccc(Cl)nc2)c(NCc2ccc(Cl)nc2)c1	0	-0.12
COC(=O)c1ccccc1N/C=C(\C#N)c1nc2ccccc2[nH]1	-0.6	.
COc1ccc(-c2nnc(SC/C(O)=C(\C#N)c3nc4ccccc4s3)n2CC2CCCO2)cc1 (centres undefined)	-0.1	.
CCc1c(C)sc(NC(=O)CCCC(=O)O)c1C(N)=O	-0.55	0.43
Cc1ccc(SC(C)C(=O)NC2CCCCC2)cc1 (centres undefined)	0.75	.
Nc1ccc(Sc2ccc(N)cc2C(=O)O)c(C(=O)O)c1	0.35	-0.34
Cc1ccc2nc(CSCc3nc4ccc(Cl)cc4n3CCO)cc(=O)n2c1	0.7	.
O=C(c1ccc(Cl)c(Cl)c1)N1CCC(O)(CN2CCOCC2)CC1	.	-0.28
CC(=O)Oc1ccc2c(c1)oc(=O)c1c3cc(OC(C)=O)c(OC(C)=O)cc3oc21	-0.1	7
NC(=S)CCn1ncc2c(N)ncnc21	-0.55	.
Nc1ncc(S(=O)(=O)c2cccc(C(F)(F)F)c2)c(-c2cccnc2)n1	.	0.01
O=C(NCCc1ccccc1)C1CCN(C(=O)C(C(=O)c2ccccc2)n2ccccc2=O)CC1 (centres undefined)	0.6	0.51
CCCCNc1nnc(SCc2nc3ccsc3c(=O)[nH]2)s1	0.5	.
Cc1ccc(C(=O)NCCn2nc(C)cc2C)cc1	-0.7	.
COc1ccc(/C=C(\C#N)C(=O)Nc2c(C)n(C)n(-c3ccccc3)c2=O)cc1	.	-2.5
CN1CCN(/N=C/c2ccc(N(C)c3ccccc3)cc2)CC1	-0.15	.
CCC(NS(=O)(=O)c1ccc(C)cc1)C(=O)NCc1ccccc1 (centres undefined)	-0.45	.

# 7 entries drawn at random from those above, as already listed:
canonical_smiles	AID504770	Ba CapD inh
CCN1C(=O)C2(C(C#N)=C(N)Oc3n[nH]c(-c4ccc(F)cc4)c32)c2ccccc21 (centres undefined)	.	-0.22
O=C(c1ccc(Cl)c(Cl)c1)N1CCC(O)(CN2CCOCC2)CC1	.	-0.28
COc1ccc(C(=O)N2N=C3c4ccccc4S(=O)(=O)N3C2N2CCCCC2)cc1 (centres undefined)	.	-0.3
N#C/C(=C(/O)CCN1C(=O)c2ccccc2C1=O)c1nc2ccccc2[nH]1	-0.8	-0.18
CN1CCN(/N=C/c2ccc(N(C)c3ccccc3)cc2)CC1	-0.15	.
Nc1ccc(Sc2ccc(N)cc2C(=O)O)c(C(=O)O)c1	0.35	-0.34
COC(=O)c1cc(S(=O)(=O)N2CCn3c2nc2ccccc23)c[nH]1	-0.4	0.2

# Following part
canonical_smiles	AID504770	Ba CapD inh
CCc1ccc(Nc2nnc(SCC(=O)Nc3cccc4nsnc34)s2)cc1	0	.
CN(C)NC1=CC(=[N+]2CCCCC2)CC(C)(C)C1	0.55	-1.6
CCOC(=O)c1ccc(NC(NC(=O)OC)(c2ccccc2)C(F)(F)F)o1 (centres undefined)	-0.55	.
Cc1cc(O)cc2oc(C(F)(F)F)c(Oc3ccccc3)c(=O)c12	1	-0.61
CN(C)c1nc2c([nH]1)c(=O)[nH]c(=O)n2C	-0.4	0.6
COc1cc(Cl)c(C)cc1NC(=O)COC(=O)CCC1CCCC1	-0.25	-0.92
CCOc1cc(C2C3=C(CCCC3=O)OC3=C2C(=O)CCC3)ccc1O	.	0.045
COc1cccc(NC(=O)c2ccc(C)cc2)c1	-0.45	0.46
Cc1nc(N2CCN(c3ccccn3)CC2)c2c(C)c(C(=O)NC(C)C)sc2n1	.	-0.11
Cn1c(=NC(=O)c2ccc(Cl)s2)sc2cccc(Cl)c21	-0.95	-1.4
CS(=O)(=O)CCSc1ncccc1C(=O)NCc1cccs1	1.5	-0.29
CC(C)c1ccccc1N=C1SCCN1C	0.15	.

# 2 successive records already listed:
canonical_smiles	AID504770	Ba CapD inh
CCOc1ccc2oc(C(C)(C)C)c(C(=O)OC)c2c1	-0.6	0.46
CCCOc1ccc(N2C(=O)C3C4C=CC(O4)C3C2=O)cc1 (centres undefined)	.	-0.12

# Later entries:
canonical_smiles	AID504770	Ba CapD inh
COc1ccc(N2CCN(S(=O)(=O)c3ccc(F)c(C(=O)Nc4cccc(Cl)c4C)c3)CC2)cc1	.	0.64
C=CCN(Cc1nc(-c2ccc(C)cc2)no1)C(=O)C(C)(C)C	0.15	.
Cc1csc(SCC(=O)Nc2cc(C(C)(C)C)nn2-c2ccccc2)n1	-0.45	.
N#C/C(=C\c1cc(Br)cs1)c1cccs1	0.5	.
CC1=NN(c2ccccc2)C(=O)C1/C=C1\SC(=S)N(CC2CCCO2)C1=O (centres undefined)	1.1	-1.8
CCOC(=O)Cn1nnnc1C(CC)N(Cc1cccnc1)Cc1cc2cc(C)ccc2[nH]c1=O (centres undefined)	-2	.
Cc1nc(N2CCOCC2)nc(Nc2cccc(F)c2)c1[N+](=O)[O-]	.	-0.69
CN(C(=O)Cn1nnc2ccccc2c1=O)C1CCCCC1	-0.6	.
CC(Sc1nnnn1C)c1ccccc1Cl (centres undefined)	-1.3	.
CS(=O)(=O)N1N=C(c2cccs2)CC1c1ccccc1F (centres undefined)	-0.2	0.23
N#CNC=Nc1cc(Cl)cc(Cl)c1	.	-0.6
CCC(Sc1nnc2sc3ccccc3n12)C(=O)O (centres undefined)	-0.15	7.9
CCOC(=O)c1ccc(NC(=O)C2CC(=O)N(Cc3ccccc3)C(=Nc3ccccc3)S2)cc1 (centres undefined)	.	0.47
COc1ccc2nc(SCC(=O)Nc3ccc(C)c(Cl)c3)[nH]c2c1	.	-0.43
CCNC(=O)C1=C(C)C(=O)OC12CCN(S(=O)(=O)CC)CC2	-0.25	0.64
CC(=O)N(Cc1ccc(F)cc1)Cc1nc2ccccc2c(=O)[nH]1	-0.75	.
COc1ccc(C2NC(=O)NC(C)=C2C(=O)OCCSc2ccccc2)c(OC)c1 (centres undefined)	.	-0.05
CC(Sc1nc2ccccc2n1C)C(=O)N(C)c1ccccc1 (centres undefined)	-0.15	.
COc1cccc(C(=O)N/N=C/c2ccc(Oc3ccccc3)cc2)c1	.	0.21
CCN(CC)c1nc(-c2ccc(F)cc2)cc(C(F)(F)F)n1	1.9	1.9
O=C(CN1CC(=O)Oc2ccccc21)OCC(=O)c1ccc(F)cc1	-0.25	.
O=C(O)CCCn1cc(NC(=O)Cc2ccccc2)cn1	-0.85	-0.3
COc1ccc(-c2nc3ccccc3c(=O)[nH]2)cc1OC	-0.15	1.3
CCC(C)Cn1c(C(C)C)nc2ccccc21 (centres undefined)	-0.65	0.055
Cc1ccc(NC(=O)CC2SC(=O)N(CN3CCCCC3)C2=O)cc1 (centres undefined)	0.45	.
Cc1[nH]c2ccc(-c3nnc(SCC(=O)N4c5ccccc5CCc5ccccc54)o3)cc2c1C	-0.8	.

# Compound activity (PubChem BioAssay)
